High-throughput results from PubChem BioAssay.
HNF4A DNA FP – change in binding of human HNF4 alpha to DNA; P41235; HNF4a-FITC DNA binding, fluorescence polarization, 1 h; activity change, % at 10 µM; hit rate 0.3% among 360,000; AID 1224865; in the data active = activity change above about 30%, passing the limit was not always enough;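 also: controls were the assay level and a saturating level of protein; the project sought stronger binding though the title names inhibitors; some compounds called inactive have numbers as strong as hits; positive values seem to mean higher polarization but the record does not say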
Target sequence (P41235 whole entry, looked up): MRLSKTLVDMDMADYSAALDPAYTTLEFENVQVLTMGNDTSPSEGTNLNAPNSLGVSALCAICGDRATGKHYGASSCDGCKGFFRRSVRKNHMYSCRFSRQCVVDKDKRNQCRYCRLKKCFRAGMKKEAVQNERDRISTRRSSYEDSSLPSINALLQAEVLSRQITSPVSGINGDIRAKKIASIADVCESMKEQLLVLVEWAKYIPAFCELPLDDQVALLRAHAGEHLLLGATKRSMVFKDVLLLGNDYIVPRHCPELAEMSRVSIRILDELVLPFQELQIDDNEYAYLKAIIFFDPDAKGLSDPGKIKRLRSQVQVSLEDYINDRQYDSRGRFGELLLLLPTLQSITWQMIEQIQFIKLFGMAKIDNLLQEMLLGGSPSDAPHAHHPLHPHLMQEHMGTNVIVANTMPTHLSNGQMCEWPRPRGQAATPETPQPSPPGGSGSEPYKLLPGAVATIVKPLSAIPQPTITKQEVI
E coli growth – E. coli growth inhibition. OD600 absorbance (concentration not given with the values). Escherichia coli growth, OD600, 23 h; stronger effect = lower value. hit rate 0.21% among 330,000;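 active = OD600 absorbance below the run mean of sample wells minus 3.6 SD, in any replicate, cut at about 0.56 in these data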;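 also: stock transfer was 300 nL into about 60 µL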
RanGTP-Imp inh – disruptors of Ran-importin-beta complex formation – biochemical, FRET, CFP-Ran, YFP-importin-beta, homogeneous, primary screen; cell-free CFP-Ran/YFP-importin-beta FRET ratio; inhibition, % (no concentration beside the values); hit rate 1.1% among 300,000; AID 2216;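 active = most replicates above 15%; inconclusive = exactly half above 15%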;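 also: 0% = DMSO wells and 100% = Ran loaded with GDP instead of GTP; wells of about 40 µL received 100 nL stock; the first replicate is given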
Vif A3G – HIV-1 Vif–A3G interaction blockers – biochemical, TR-FRET, GST-Vif 1-94, biotin-A3G peptide, dose response retest, primary screen (AID 1117319) | TR-FRET GST-Vif / biotin-A3G peptide binding; higher % means a stronger effect; test concentration not given here; strong numbers were not always called active | inhibition, %, or IC50 in µM where a hit was titrated | hit rate 0.57% among 260,000;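 active = above the screen mean plus three standard deviations and confirmed in dose response; inconclusive = results disagree or hit not tested in dose response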;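 also: Vif residues 1-94 fused to GST binding biotinylated APOBEC3G peptide 110-148; 0% = full assay without inhibitor and 100% = GST in place of GST-Vif; retest series ran down from 100 µM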
FGF22 binding – shifts melting point of recombinant human FGF22; Q9HCT0; recombinant FGF22 thermal shift, SYPRO orange fluorescence; percent of sucrose octasulfate shift, DMSO zero; calls only at 9.99 µM; hit rate 1.5% among 340,000; AID 651658;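 active = melting point raised past a set limit in the mean and every replicate; inconclusive = no clear call; three in four hits are not shown here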
Target sequence (Q9HCT0 whole entry, looked up): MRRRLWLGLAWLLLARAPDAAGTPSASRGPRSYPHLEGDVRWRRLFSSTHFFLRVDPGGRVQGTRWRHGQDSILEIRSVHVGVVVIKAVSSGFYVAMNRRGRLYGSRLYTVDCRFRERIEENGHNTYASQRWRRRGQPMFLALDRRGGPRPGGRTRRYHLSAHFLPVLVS
MLL AF4-AF9 inh – blocks AF4 peptide binding to human AF9; P42568; AlphaScreen, biotin-AF4 peptide binding to FLAG-AF9; inhibition, % at 10 µM; hit rate 0.47% among 350,000;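 active = every replicate reaching a set inhibition limit, whatever the replicate mean, cut at about 25% in these data; inconclusive = mean inhibition reaches that limit but some replicates miss it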;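 also: 0% = plate neutral control median and 100% = total signal loss; the record names both 10 and 1 µM as test concentration; the first replicate is given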
UCH37 inh – human UCH37 deubiquitinating enzyme inhibition | hit rate 0.33% among 330,000 | Q9Y5K5 | inhibition, % (no concentration beside the values) | purified proteasome/UCH37, Ub-AMC cleavage fluorescence;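 active = mean of two replicates above 20%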;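 also: 0% = compound-free wells with enzyme and 100% = wells lacking proteasome; stock transfer was 100 nL into about 20 µL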
Target sequence (Q9Y5K5 whole entry, looked up): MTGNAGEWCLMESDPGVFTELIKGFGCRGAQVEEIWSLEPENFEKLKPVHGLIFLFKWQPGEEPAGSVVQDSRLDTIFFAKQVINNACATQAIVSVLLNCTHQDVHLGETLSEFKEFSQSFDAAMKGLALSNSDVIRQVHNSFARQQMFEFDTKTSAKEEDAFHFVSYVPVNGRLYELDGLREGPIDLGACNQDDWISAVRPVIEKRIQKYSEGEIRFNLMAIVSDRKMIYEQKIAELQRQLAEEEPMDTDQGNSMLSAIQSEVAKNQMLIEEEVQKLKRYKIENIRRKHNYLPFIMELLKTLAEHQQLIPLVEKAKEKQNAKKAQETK
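Material: Human UCH37 enzyme supplied as purified proteasome complex | Schedule: 30 min preincubation with enzyme, 25 min cleavage at room temperature | Detection: AMC fluorescence 355/460 nm | Measure: % inhibition of Ub-AMC cleavage fluorescence | Controls: Wells without proteasome as full block, compound-free enzyme plus substrate as uninhibited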
* hit, by the source's call; i = inactive; ? = inconclusive; nt = no result given; & = joins results of further samples.

Sequence of screens – HNF4A DNA FP	MLL AF4-AF9 inh	Vif A3G	RanGTP-Imp inh	FGF22 binding	UCH37 inh	E coli growth
O=C(O)c1ccc(NCc2cccc(Br)c2)cc1
    0.3	nt	6%	1.0	nt	1.7	0.67
CSc1nnc2c3c4c(sc3c(=O)n(-c3ccccc3)n12)CC(C)(C)OC4
    2.8	nt	?	-2.1	nt	2.5	0.74
O=C(Cn1cnc2c(nnn2Cc2ccccc2)c1=O)NCc1ccccc1Cl
    -0.3	-8.8	nt	3.0	i	0.2	0.7
CN(C)c1ccc(CC(=O)N2CCCCC2c2cc(C(=O)Nc3ccccc3Cl)no2)cc1 (stereo unspecified)
    0.0	15	nt	nt	i	nt	nt
CC(=O)Nc1ccc(S(=O)(=O)N2CCC(C(=O)N[C@@H](C)C(=O)NC3CCCC3)CC2)cc1
    -2.4	0.2	-1%	-2.1	i	4.8	0.71
CC(C)CCNC(=O)C1CCN(c2nc3ccccc3o2)CC1
    2.0	nt	-1%	1.6	nt	-2.2	0.74
Cc1ccc(-c2nnn(CC(=O)NC3CC4CCC3C4)n2)cc1 (stereo unspecified)
    -0.9	nt	2%	4.4	nt	3.1	0.73
Cc1nnsc1-c1nnc(SCC(=O)c2ccccc2)n1C1CC1
    2.7	-1.6	nt	7.8	i	-0.4	0.61
Cc1ccc2nc(/C(C#N)=C/c3ccc(-c4ccccc4C(=O)O)o3)[nH]c2c1
    97*	1.1	9%	-55	i	19	0.68
Cc1ccc(NC(=O)CN2C(=O)C3CCCCN3C(=O)c3ccccc32)cc1 (stereo unspecified)
    2.5	nt	?	9.1	nt	-4.1	0.73
CCc1ccccc1NC(=S)N(CCCN(C)C)Cc1cc2cc3c(cc2[nH]c1=O)OCO3
    4.7	3.3	-1%	-9.2	i	-171	0.66
CNc1nc(-c2ccc([N+](=O)[O-])cc2)cs1
    -1.1	nt	2%	-3.8	nt	6.4	0.69
O=C(CC(=O)Nc1ccc(F)cc1)Nc1ccc(F)cc1
    -4.1	-3.4	-4%	2.3	i	4.4	0.67
CCOC(=O)CN1CC23C=CC(O2)C(C(=O)Nc2ccc(F)cc2)C3C1=O (stereo unspecified)
    -1.6	nt	-2%	0.3	nt	5.7	0.69
COc1ccc(CNc2nc3ccccc3s2)cc1OC
    -2.6	3.7	-1%	6.3	i	6.1	0.69
Cc1csc(NC(=O)C2CCCCC2)n1
    -0.1	nt	4%	3.4	nt	3.3	0.65
CCc1ccccc1N(CC(=O)OC)S(C)(=O)=O
    3.8	nt	2%	3.0	nt	1.0	0.74
CC1(C)CC(=O)c2ccc(O)cc2O1
    -0.5	-0.1	24%	0.0	nt	6.3	0.69
CSCC[C@@H](CO)NC(=O)[C@H]1O[C@@H](n2ccc(=O)[nH]c2=O)[C@H](O)[C@@H]1O
    5.1	-1.1	nt	nt	i	nt	nt
Cc1csc2ncc(C(=O)Nc3cccc(C(F)(F)F)c3)c(=O)n12
    -29	-3.8	nt	-4.3	i	-20	0.74
Cc1cccc(C(=O)NCC(=O)OCC(=O)N(C)CC(=O)Nc2ccc(F)cc2)c1
    1.5	-0.1	-4%	1.3	i	-0.4	0.64
Cc1cc(C)n2nc(C(=O)NCc3cccc(C(F)(F)F)c3)nc2n1
    -1.0	1.4	4%	0.1	i	1.0	0.69
COc1cc(S(=O)(=O)NC2CCCCC2C)ccc1F (stereo unspecified)
    2.9	1.6	-6%	-2.6	i	-0.3	0.75
O=C(N/N=C/c1cccnc1)c1ccccc1OCc1cccc(Br)c1
    3.3	-0.8	-4%	1.1	i	nt	nt
COc1ccccc1N(CC(=O)Nc1c(C)cccc1C)S(C)(=O)=O
    -0.8	nt	1%	-2.1	nt	4.5	0.69
CCOc1ncccc1C(=O)OCc1nnc(-c2ccccc2)o1
    -0.1	nt	2%	nt	nt	1.1	0.7
Cc1ccc(-c2nnn(CC(=O)N(CCN3CCOCC3)C(C(=O)NC(C)(C)C)c3ccc(C)o3)n2)cc1 (stereo unspecified)
    4.7	0.2	?	-0.6	i	3.5	0.68
COC(=O)COn1c(SC(C)C)nc2ccccc2c1=O
    2.1	nt	-2%	2.2	nt	1.4	0.63
CCCCn1c(SCC(=O)NCc2ccco2)nnc1-c1ccco1
    -1.4	nt	5%	4.4	nt	-0.5	0.69
CC1CN(C(=O)c2ccc(N3CCCCC3)c([N+](=O)[O-])c2)CC(C)O1 (stereo unspecified)
    1.8	nt	3%	-0.8	nt	4.1	0.71
COc1ccc(S(=O)(=O)N2CCCC2C(=O)Nc2ccc(C(C)=O)cc2)cc1 (stereo unspecified)
    0.8	-6.1	9%	1.0	i	2.2	0.7
Cc1ccccc1NC(=O)NCCc1nc2ccccc2[nH]1
    13	nt	3%	0.7	nt	5.8	0.72
CCCCn1c(N)c(N(Cc2ccccc2OC)C(=O)CSCC(=O)Nc2ccc(C)cc2)c(=O)[nH]c1=O
    -3.8	0.6	nt	nt	i	0.3	0.73
CCOC(=O)c1sc(=S)[nH]c1C
    1.7	-0.6	nt	nt	i	nt	nt
COCC(=O)N(C)[C@H]1C[C@H]2c3cc(N4CCN(C)CC4)ccc3CCN2C(=O)[C@H]1[C@H](C)O
    3.4	-3.9	3%	nt	i	nt	nt
Cc1ccc(S(=O)(=O)c2nc(-c3ccccc3)oc2NCCN2CCOCC2)cc1
    0.7	nt	7%	8.2	nt	3.0	0.74
O=C(c1ccco1)N(CCCN1CCOCC1)c1nc(-c2ccc(Cl)cc2)cs1
    1.0	nt	-26%&-16%	5.5	nt	-9.2	0.68
Cc1cc(CN2CCN(CC(=O)Nc3cc(C(F)(F)F)ccc3-n3cncn3)CC2)no1
    4.5	9.1	-10%	nt	i	4.3	0.65
CCC(=O)N1CCc2cc(S(=O)(=O)NC(C(=O)NC3CCCc4ccccc43)C(C)C)ccc21 (stereo unspecified)
    -0.6	3.1	-8%	6.0	i	2.5	0.71
CC(=O)C1=C(O)C(=O)N(c2ccc(Br)cn2)C1c1ccccc1[N+](=O)[O-] (stereo unspecified)
    -3.5	-1.3	6%	1.4	i	8.6	0.72
CN(CC(=O)Nc1ccccc1Cl)CC(=O)N(C)c1c(N)n(Cc2ccccc2)c(=O)[nH]c1=O
    -0.4	-2.4	2%	nt	i	0.6	0.68
CCC(=O)Nc1cc(C)c(NC(=O)CCc2ccccc2)cn1
    -1.2	nt	19%	40*	nt	-4.7	0.7
COc1ccc(CC(=O)c2ccc(O)cc2O)cc1OC
    1.2	nt	-4%	1.3	nt	7.9	0.7
Cc1cc(C)c(S(=O)(=O)N2CCCCC2CCNC(=O)C(=O)NCC2CCCO2)c(C)c1 (stereo unspecified)
    -1.1	0.4	3%	-1.8	i	2.0	0.69
CC(Oc1ccccc1)C(=O)N1CCC2(CC1)CC(=O)c1ccccc1O2 (stereo unspecified)
    1.6	-0.5	4%	-1.1	nt	-29	0.69
CN(C)S(=O)(=O)c1cccc(NC(=O)c2ccc3c(c2)S(=O)(=O)N=C2CCCCCN23)c1
    3.2	-2.9	nt	2.5	i	nt	nt
Cc1ccc2oc(NC3=NC4(CCCC4)C4=C(CCCC4=O)N3)nc2c1
    -3.0	3.9	nt	nt	i	nt	nt
CCCN1CCN(C(=O)c2noc3c2COc2ccc(C)cc2-3)CC1
    1.3	-6.3	nt	1.2	i	6.1	0.72
CS(=O)(=O)N1CCC(C(=O)Nc2ccc(Cl)cc2)CC1
    0.0	0.2	-7%	8.0	i	4.6	0.65
O=C(N/N=C/c1ccccc1)c1cccc2ccccc12
    -1.1	0.0	nt	4.2	i	nt	nt
Cc1ccc(S(=O)(=O)NCCOC(=O)Nc2sc(=S)n(C)c2C)cc1
    -3.4	8.4	23%	-3.4	i	6.9	0.68
COCC(=O)N1CCCC(C)(C(=O)Nc2cccc(Oc3ccccc3)c2)C1 (stereo unspecified)
    2.4	0.3	nt	nt	i	nt	nt
C[C@@H]1COC(=O)[C@H](NC(=O)OCC2c3ccccc3-c3ccccc32)C/C=C\C[C@@H](CC(=O)N[C@H](CO)Cc2ccccc2)C(=O)N1
    -6.3	1.1	nt	nt	i	3.5	nt
CC1/C(=N/O)CC(c2ccco2)NC1c1ccco1 (stereo unspecified)
    -0.9	-19	-11%	-0.5	i	nt	nt
COc1ccccc1OCc1nnc(SCC(=O)N2CCCCC2)o1
    2.0	0.2	-3%	-2.8	i	2.7	0.7
O=C(Nc1ccccc1C(=O)N1CCCCC1)c1cccs1
    1.8	-0.2	5%	7.9	i	0.8	0.73
CC(/C=N/n1c(-c2cc(C)[nH]n2)n[nH]c1=S)=C\c1ccco1
    -3.9	-5.2	nt	13	i	nt	nt
O=c1c2ccccc2sn1-c1cc(S(=O)(=O)N2CCOCC2)ccc1N1CCOCC1
    0.8	nt	10%	7.4	nt	1.7	0.69
CC1=CC(C)(C(Cl)Cl)C(C)=CC1=O (stereo unspecified)
    6.2	nt	27%	0.1	nt	1.5	0.71
CCN1CCN(C(c2ccc(F)cc2)c2nnnn2Cc2ccc3c(c2)OCO3)CC1 (stereo unspecified)
    2.5	-1.3	nt	2.9	i	0.5	0.66

(listing goes on)
Sequence of screens – HNF4A DNA FP	MLL AF4-AF9 inh	Vif A3G	RanGTP-Imp inh	FGF22 binding	UCH37 inh	E coli growth
CCOc1ccc(NC(=O)CSc2nc(O)c(C)c(=O)n2-c2ccc(F)cc2)cc1
    0.6	2.0	nt	1.1	i	2.2	0.67
O=c1[nH]c2ccccc2c2cn(-c3ccccc3)nc12
    3.7	-0.1	nt	1.4	i	-9.0	0.63
Cc1cc(N2C(=O)CCC2=O)n(-c2ccccc2)n1
    -0.6	nt	-2%	3.1	nt	3.8	0.69
Cc1ccc(OCc2n[nH]c(=S)n2-c2ccc(C)cc2)cc1
    2.4	-5.6	-9%	2.4	i	-4.4	0.63
O=C(NCC1COc2ccccc2O1)C1CCCN(S(=O)(=O)c2cnc[nH]2)C1 (stereo unspecified)
    -0.1	1.1	nt	4.3	i	4.8	0.7
O=C(O)/C=C/C(=O)Nc1ccc2c(c1)NC(=O)CO2
    -4.2	0.1	8%	34*	i	-0.9	0.68
CCN1C(=NCc2cccc(Cl)c2)N[C@@H](c2cccc(F)c2)C(C(=O)OC)=C1C
    3.0	4.0	nt	6.9	i	nt	nt
Cc1ccc(-c2cc3nc4c(c(=O)n3[nH]2)CCCC4)cc1
    0.8	nt	-2%	7.0	nt	-5.1	0.86
C[C@H](N=C1NS(=O)(=O)c2ccccc21)C(=O)OCc1cc([N+](=O)[O-])cc2c1OCOC2
    2.1	0.7	0%	8.3	i	3.5	0.73
Cc1ccc(C)c(N2N=C(C(=O)OCc3nnc(-c4cccs4)o3)CCC2=O)c1
    5.7	0.7	4%	nt	i	3.1	0.68
O=C(CN1C(=O)NC2(CCOc3ccccc32)C1=O)NCCc1ccc(F)cc1 (stereo unspecified)
    -2.5	-2.1	nt	nt	i	3.5	0.68
O=C(CN1c2ccccc2Sc2ccccc21)NNC(=O)Nc1ccc(Cl)cc1
    -1.5	1.4	-5%	2.4	i	5.2	0.68
Cc1ccccc1SCC(=O)OCC(=O)Nc1sccc1C(N)=O
    1.1	4.1	nt	?	i	3.8	0.71
COC(=O)c1ccc(NC(=S)N2CCC(C(N)=O)CC2)cc1
    -0.9	2.0	nt	-0.9	i	5.5	0.69
CNC(=O)C(=O)Nc1cc2c3c(c1)C(C)C(=O)N3CCC2 (stereo unspecified)
    1.9	-2.0	nt	-1.5	i	3.9	0.66
COc1ccc(N2CCN(C(CNC(=O)C(=O)NCC3CCCO3)c3ccco3)CC2)cc1 (stereo unspecified)
    0.3	0.7	9%	-1.0	i	3.2	0.68

An excerpt, so the mix of outcomes need not match the whole.
